# Compound activity: PubChem, ICCB-Longwood Screening Facility, Harvard Medical School
# MgrA DNA FP: S. aureus MgrA activity modulators, primary screen, biochemical, S. aureus Newman, fluorescence polarization; MgrA-DNA binding; inhibition, %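 (about 10 µg/mL by stock and volumes)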; 84,000 tested, 0.13% active; AID 602314, 2012;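 active means above 50% in either of two replicates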;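 further: 0% = protein plus DNA without compound and 100% = DNA alone without protein; higher means less MgrA bound to DNA so lower polarization; one replicate is shown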
# * marks the source's active call; other numbers are inactive results.
SMILES,MgrA DNA FP
CC(C)C[C@@H](CN)CC(=O)O,0.9

# These rows are one share of the data; rates above refer to the full screens.
